YopH PTP inh: blocks Yersinia enterocolitica YopH tyrosine phosphatase; fluorescence Ex485/Em525; inhibition, %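 (about 10 µM by stock and volumes)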; 140,000 compounds, 0.16% hits; AID 898;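 active = inhibition of 50% or more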;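 also: controls were vehicle for no effect and minimum signal wells for full effect; inactives centre near -20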
Mtb betalactam: beta-lactam sensitization of Mtb H37Rv. M. tuberculosis H37Rv growth with meropenem, percent inhibition; hits of this screen are not shown here. 330,000 compounds, 0.27% hits. inhibition, % at 25 µM;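 active = about 74% or more and at least 40 points above the plate without the antibiotic, then above 30% in a dose series; inconclusive = first-round hits that could not be retested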;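 also: growth measured after seven days incubation then overnight dye step; 0% = bacteria only wells and 100% = bacteria with antibiotic; twin plates without the antibiotic show which effects depend on it; some results filed as inactive read as strong as hits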
Mtb H37Rv: M. tuberculosis H37Rv growth inhibitors, H37Rv strain (AID 1626). M. tuberculosis H37Rv growth inhibition; higher % means a stronger effect. one-dose inhibition, % at 10 µM; IC50 in µM for titrated hits. 220,000 compounds, 0.95% hits;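 active = confirmed in a dose series; inconclusive = inhibition above 80% but not taken into the dose series; inactive = below 80% or under 30% at every dose of the series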;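 also: bacteria incubated seven days before Alamar blue readout; 0% = bacteria only wells and 100% = bacteria with antibiotic wells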
Arbovirus anti: antivirals against arbovirus infection; inhibition, % at 10 µM; arbovirus infection cell-based antiviral screen; 200,000 compounds, 0.37% hits; AID 1251;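 active = inhibition from about 30%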;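 also: bluetongue infection of BSR cells; cell survival read as ATP light after 72 h; 0% = infected wells without compound and 100% = uninfected wells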
RecA splice inh: Mtb RecA intein splicing inhibition; P9WHJ3; cell-free RecA intein splicing, fluorescence; inhibition, %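 (about 9 µM by stock and volumes)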; 290,000 compounds, 0.75% hits; in the data active = inhibition above about 30%; inconclusive = no clear call, values can overlap the other calls;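 also: 0% = vehicle wells and 100% = reference inhibitor control wells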
Target sequence (P9WHJ3 whole entry, looked up, canonical isoform): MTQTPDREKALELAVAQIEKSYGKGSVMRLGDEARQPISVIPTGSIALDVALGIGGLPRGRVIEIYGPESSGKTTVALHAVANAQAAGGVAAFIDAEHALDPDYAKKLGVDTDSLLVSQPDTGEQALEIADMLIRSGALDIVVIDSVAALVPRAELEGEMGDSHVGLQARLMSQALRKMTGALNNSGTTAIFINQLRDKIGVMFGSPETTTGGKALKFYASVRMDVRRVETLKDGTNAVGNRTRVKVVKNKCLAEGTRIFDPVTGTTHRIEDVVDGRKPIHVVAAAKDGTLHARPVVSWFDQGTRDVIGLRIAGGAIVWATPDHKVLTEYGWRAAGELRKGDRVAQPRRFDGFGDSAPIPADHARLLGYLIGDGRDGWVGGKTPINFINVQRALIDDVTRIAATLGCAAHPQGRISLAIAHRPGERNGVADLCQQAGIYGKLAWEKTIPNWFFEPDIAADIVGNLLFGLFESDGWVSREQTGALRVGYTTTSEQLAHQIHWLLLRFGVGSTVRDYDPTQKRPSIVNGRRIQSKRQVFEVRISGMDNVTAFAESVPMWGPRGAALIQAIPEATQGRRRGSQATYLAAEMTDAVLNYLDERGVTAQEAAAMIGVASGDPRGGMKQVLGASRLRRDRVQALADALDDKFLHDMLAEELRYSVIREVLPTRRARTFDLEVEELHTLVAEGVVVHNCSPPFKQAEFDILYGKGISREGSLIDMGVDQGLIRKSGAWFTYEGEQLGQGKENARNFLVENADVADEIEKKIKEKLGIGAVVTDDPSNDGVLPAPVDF
Arbovirus anti repeat: further read-out of Arbovirus anti, marked with its call; inhibition, %; measured here: 10K subset replicate screen; many hits read low in the repeat;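 first of two repeat runs on a subset; 0% = infected and 100% = uninfected wells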
* = called active by the depositor; ? = inconclusive; / = no result given. Some of the compounds tested (hit frequency here may not be typical).

A first look:
SMILES	YopH PTP inh	Mtb betalactam	Mtb H37Rv	Arbovirus anti	RecA splice inh	others
COc1ccc(NC(=S)Nn2cnnc2)cc1OC	/	3	-3%	1	-3.4
O=C(NC1CCCCCC1)c1c(O)c2ccccc2[nH]c1=O	-48	-2	12%	0	0.0

The list itself (from the top)
SMILES	YopH PTP inh	Mtb betalactam	Mtb H37Rv	Arbovirus anti	RecA splice inh	others
COc1ccc(NC(=S)Nn2cnnc2)cc1OC	/	3	-3%	1	-3.4
O=C(NC1CCCCCC1)c1c(O)c2ccccc2[nH]c1=O	-48	-2	12%	0	0.0
Cc1ccc(NC(=O)/C(=C/c2cccs2)NC(=O)c2ccco2)cc1	-45	-4	3%	-8	0.6
Cc1cc(C(F)F)nn1CC(=O)NC1CCCCCC1	/	-25	/	/	2.4
Cc1ccc2nc(NC(=O)CCCC(=O)O)sc2c1	/	-7	-5%	-3	-0.4
COc1ccc(/C=N/NC(=O)c2nnn(-c3nonc3N)c2CN(C)C2CCCCC2)cc1	/	3	/	/	-0.9
O=C(O)c1cnn(-c2ccccc2)c1-c1ccncc1	/	4	/	/	3.2
O=C(N/N=C/c1ccc(N2CCOCC2)cc1)c1ccc(NS(=O)(=O)c2cccs2)cc1	/	2	-1%	-1	-2.0
COc1ccc(C(=O)/C=C/c2ccc(OC(=O)c3cc(OC)c(OC)c(OC)c3)cc2)cc1	-15	95	40%	2	20
COc1ccc(C(=O)c2c(C)oc3ccc(O)c(CN4CCOCC4)c23)cc1	-43	2	1%	5	1.9
O=C(N/N=C/c1ccccc1F)NC1CCCCC1	-5	3	6%	-7	1.5
COc1ccc(CNC(=O)[C@H](Cc2ccccc2)NC(=O)C2CCNCC2)cc1	/	-5	/	/	-0.7
Brc1ccc(Oc2nsnc2N2CCOCC2)cc1	-42	-9	3%	8	3.7
COc1ccc(NC(=O)Cn2c(C)cc(=O)c3ccccc32)cc1	-8	10	18%	10	1.0
Cc1ccc2c(c1)NC(=O)C(CC(=O)NCCCN1CCc3ccccc3C1)O2 (stereo not given)	-27	3	-7%	11	1.6
O=C(NC(=S)Nc1ccccc1)c1cccs1	/	10	/	/	3.8
COc1ccc(-c2nc(NC(=O)c3ccc(OCC(=O)Nc4ccc(F)cc4)c(OC)c3)sc2C)cc1	-27	4	9%	-28	-0.2
CCOc1ccc(Nc2nc(CC(=O)OC)cc(=O)[nH]2)cc1	26	-2	-14%	3	1.2
COc1ccc(-c2nnc(SCC(N)=O)n2N)cc1	-33	11	1%	2	-1.8
Cc1cc(N2C(=O)C(O)=C(C(=O)c3cc4ccccc4o3)C2c2ccc(Cl)cc2)no1 (stereo not given)	/	33	/	/	-0.7
CN(C(=O)Nc1ccc(Cl)cc1Cl)[C@H]1c2cc(Br)ccc2OC[C@H]1CO	-31	53	17%	15	6.3
CC1CCCC(C)N1/N=C/c1ccc(N(C)C)cc1 (stereo not given)	/	0	-4%	3	-3.1
COc1ccc(-c2nc3c(c(SCC(=O)N4CCOCC4)n2)COC(C)(C)C3)cc1	-35	?	-2%	13	-1.6	Arbovirus anti repeat=-3
NS(=O)(=O)c1cccc(NC(=O)c2cccc(Oc3ccccc3)c2)c1	/	5	/	/	6.0
CCO/C=C1\SC(=S)N(c2ccc(Cl)cc2)C1=O	/	1	-2%	/	4.6
CCOC(=O)N1CCC(NC(=O)CNS(=O)(=O)c2ccc(Br)s2)CC1	-29	-3	2%	-2	3.1
CSc1nnc(NC(=O)c2nc(S(=O)(=O)Cc3ccc(C)cc3)ncc2Cl)s1	/	16	/	/	83*
COc1ccc(OC)c(-n2c(=S)[nH]c3cc(C(=O)N4CCCCC4)ccc3c2=O)c1	/	3	2%	11	-0.4
CCC(=O)Nc1nnc(/C=C/c2ccc(OC)cc2)s1	/	1	4%	/	-2.4
COCCNC(=O)c1ccc(C(=O)C(=O)c2ccccc2)cc1	-22	-3	1%	-5	-1.2
CSc1nc2c(c(=O)[nH]c(=O)n2C)n1CCCc1ccccc1	/	-9	/	/	0.5
COc1cccc(-c2cccc(NC(=O)C3CCN(Cc4ccc(C)o4)CC3)c2)c1	/	0	/	/	4.3
O=C(CSc1nc2ncccc2[nH]1)NCCc1ccccc1	/	0	6%	0	0.8
CCOc1ccc(NC(=O)C2CCCN(S(=O)(=O)c3c(C)n[nH]c3C)C2)cc1 (stereo not given)	/	-2	/	-2	1.0
O=C(NC(=S)NCc1cccnc1)c1cccc2ccccc12	/	-3	-4%	4	-2.0
CCC(C)(C)NC(=O)c1ccc(S(=O)(=O)N2CCCCCC2)cc1	/	1	6%	4	1.2

Brought forward from above: five compounds; new compounds follow.
SMILES	YopH PTP inh	Mtb betalactam	Mtb H37Rv	Arbovirus anti	RecA splice inh	others
COc1cccc(-c2cccc(NC(=O)C3CCN(Cc4ccc(C)o4)CC3)c2)c1	/	0	/	/	4.3
O=C(CSc1nc2ncccc2[nH]1)NCCc1ccccc1	/	0	6%	0	0.8
CCOc1ccc(NC(=O)C2CCCN(S(=O)(=O)c3c(C)n[nH]c3C)C2)cc1 (stereo not given)	/	-2	/	-2	1.0
O=C(NC(=S)NCc1cccnc1)c1cccc2ccccc12	/	-3	-4%	4	-2.0
CCC(C)(C)NC(=O)c1ccc(S(=O)(=O)N2CCCCCC2)cc1	/	1	6%	4	1.2
CC(=O)Nc1ccc(NC(=O)CSCc2ccccc2Cl)cc1	/	2	/	/	1.3
Cc1cccc(OCCCC(=O)Nc2ccc(S(=O)(=O)Nc3nccs3)cc2)c1C	/	78	/	/	4.4
Cn1nc(-c2ccc(Cl)cc2)c2cc(C(=O)NCCCN3CCCC3)sc21	-39	65	6%	-27	/	Arbovirus anti repeat=-23
Cc1ccc2c(c1)C1C=CCC1C(C(=O)O)N2 (stereo not given)	6	6	3%	5	6.3
COc1cccc(NC(=O)CN(C)C(=O)c2c(C)nn(Cc3ccc(C)cc3)c2Cl)c1	/	-6	/	/	1.1
Cc1[nH]c2ccccc2c1SCc1n[nH]c(=S)n1C	/	-15	-4%	/	-3.2
C[n+]1c(/C=C/c2ccc3c(c2)OCO3)ccc2ccccc21	/	-5	-4%	-2	8.6
Cc1ccc2c(c1)N(C(=O)CCC(=O)N1CCN(c3cccc(C)c3C)CC1)CCO2	/	9	/	/	9.2
CN(C)c1ccc(C(=S)N2CCCC2)cc1Br	/	-2	/	/	0.0
CC(Cl)C(=O)Nc1c2c(nn1-c1ccccc1)CSC2 (stereo not given)	/	-1	/	/	1.6
O=C(CN1CCOCC1)N1CCCc2ccccc21	/	-6	-4%	1	1.1
COc1ccccc1NC(=O)NCC1(N(C)C)CCCCC1	/	-13	/	/	-3.5

An excerpt from above in order of formula weight, falling:
SMILES	YopH PTP inh	Mtb betalactam	Mtb H37Rv	Arbovirus anti	RecA splice inh	others
O=C(N/N=C/c1ccc(N2CCOCC2)cc1)c1ccc(NS(=O)(=O)c2cccs2)cc1	/	2	-1%	-1	-2.0
CCC(C)(C)NC(=O)c1ccc(S(=O)(=O)N2CCCCCC2)cc1	/	1	6%	4	1.2
Brc1ccc(Oc2nsnc2N2CCOCC2)cc1	-42	-9	3%	8	3.7
CCOc1ccc(Nc2nc(CC(=O)OC)cc(=O)[nH]2)cc1	26	-2	-14%	3	1.2
O=C(CN1CCOCC1)N1CCCc2ccccc21	/	-6	-4%	1	1.1
Cc1ccc2c(c1)C1C=CCC1C(C(=O)O)N2 (stereo not given)	6	6	3%	5	6.3

Next part.
SMILES	YopH PTP inh	Mtb betalactam	Mtb H37Rv	Arbovirus anti	RecA splice inh	others
O=C1/C(=C2/NCCN2C2CC(=O)N(c3ccccc3)C2=O)CC/C1=C\c1ccccc1 (stereo not given)	/	4	0%	1	-2.1
Cc1ccc(S(=O)(=O)/N=C(/NC(=S)Nc2ccccc2)c2ccccc2)cc1	-22	3	17%	-1	0.8
O=C(Cc1ccc(Cl)cc1)Nc1ccccc1N1CCOCC1	19	-18	3%	14	3.2
Clc1ccccc1Cn1nnc2c(NCCN3CCOCC3)ncnc21	-38	11	0%	5	-1.8
CCC1(C)Cc2c(sc3[nH]c(=S)[nH]c(=S)c23)CO1 (stereo not given)	/	0	/	/	-3.4
Cc1ccc(S(=O)(=O)c2cn(C)c3cc(N4CCN(C)CC4)c(F)cc3c2=O)cc1	/	5	/	/	-2.4
Cc1ccc(-c2nnn(CC(=O)N3CCCc4ccccc43)n2)cc1	-115	1	-4%	2	1.8
O=C(CC1S/C(=N/N=C/c2ccco2)NC1=O)Nc1ccccc1 (stereo not given)	/	-4	3%	-1	-1.5
Nc1nc2n(n1)C(c1ccco1)CC(c1ccc(Cl)c(Cl)c1)N2 (stereo not given)	-51	-6	-11%	-1	-5.6
Nc1ccccc1N=Cc1ccc(-c2cccc(Cl)c2)o1	/	7	54%	-2	-0.2
Cc1ccc(C)c(C(=O)CC2(O)C(=O)Nc3ccccc32)c1 (stereo not given)	-20	-11	-2%	-4	1.1
O=C(NCCS(=O)(=O)NCc1ccc(Cl)cc1)c1ccccc1	/	-13	/	/	0.5
CS(=O)(=O)N(CC(=O)N1CCCC1)c1ccc(OCc2ccccc2)cc1	45	3	-6%	2	2.5
COc1ccc(NS(=O)(=O)c2cccc(C(=O)N3CCCC(C)C3)c2)cc1 (stereo not given)	/	-4	/	/	1.2
CCn1c(N2CCN(S(=O)(=O)c3ccc(F)cc3)CC2)nc2ccccc21	/	16	0%	5	0.1
COC(=O)C1=C(C)NC(=O)/C1=C\c1cc(C)n(-c2ccccc2F)c1C	/	3	-1%	-3	-5.6
Cc1csc(=O)n1CCC(=O)OCC(=O)Nc1ncc(Cl)cc1Cl	/	-13	/	/	0.4
Cc1ccc(S(=O)(=O)N2CCN(CC(O)c3ccccc3)CC2)cc1 (stereo not given)	/	0	-4%	10	0.5
O=C(CN1C(=O)c2ccccc2C1=O)Nc1ccccc1C(=O)NC1CCCCC1	-2	4	0%	-7	-1.0
Cc1oc2ccc(OCc3ccccc3Cl)cc2c1C(=O)O	/	14	/	/	0.5
O=C(CN(C(=O)c1csnn1)c1ccc(F)c(Cl)c1)NC1CCCCC1	/	-2	/	/	-1.9
O=C(NCCC1=CCCCC1)c1ccc(CN2CCOCC2)cc1	3	1	-2%	10	1.4
Cc1ccn(CCC(=O)NC2CC(C)(C)Cc3c2cnn3-c2ccccc2C)n1 (stereo not given)	/	-1	/	/	-4.8
C=C(C)CC1(NC(C)c2ccccc2)CCCCC1 (stereo not given)	-10	-3	-2%	1	-0.6

Quoted at random: two records from the list
SMILES	YopH PTP inh	Mtb betalactam	Mtb H37Rv	Arbovirus anti	RecA splice inh	others
Cc1csc(=O)n1CCC(=O)OCC(=O)Nc1ncc(Cl)cc1Cl	/	-13	/	/	0.4
Cc1oc2ccc(OCc3ccccc3Cl)cc2c1C(=O)O	/	14	/	/	0.5

(cont.)
SMILES	YopH PTP inh	Mtb betalactam	Mtb H37Rv	Arbovirus anti	RecA splice inh	others
COc1ccccc1-n1c(N)cc(=O)nc1SCC(=O)Nc1cc(C)on1	/	-4	2%	2	1.6
O=C(/C=C\c1ccccc1[N+](=O)[O-])Nc1ccccc1	/	-3	-2%	2	3.7
CC(=O)c1ccc(OCC(O)CN2CCC(C)CC2)cc1 (stereo not given)	-23	-3	-6%	7	-0.7	Arbovirus anti repeat=-5
O=C(Nc1ccc(N2CCOCC2)cc1)C1CC(=O)N(c2ccc(Cl)cc2)C1 (stereo not given)	/	2	-2%	-1	-1.0
